# TRPML1 ag: activates the human TRPML1 channel. Q9GZU1. AID 624414. hit rate 0.12% among 410,000. activation, % (test concentration not listed). TRPML1-expressing cells, Ca2+ dye fluorescence, FDSS; host cell line not named in the record; reference of the full effect not given here; in the data active = activation above about 50%; inconclusive = about 30% to 50%; inactive = below about 30%; also: 0% is about no effect; the text of the record puts the active cut at 80%
# Target sequence (Q9GZU1 whole entry, looked up): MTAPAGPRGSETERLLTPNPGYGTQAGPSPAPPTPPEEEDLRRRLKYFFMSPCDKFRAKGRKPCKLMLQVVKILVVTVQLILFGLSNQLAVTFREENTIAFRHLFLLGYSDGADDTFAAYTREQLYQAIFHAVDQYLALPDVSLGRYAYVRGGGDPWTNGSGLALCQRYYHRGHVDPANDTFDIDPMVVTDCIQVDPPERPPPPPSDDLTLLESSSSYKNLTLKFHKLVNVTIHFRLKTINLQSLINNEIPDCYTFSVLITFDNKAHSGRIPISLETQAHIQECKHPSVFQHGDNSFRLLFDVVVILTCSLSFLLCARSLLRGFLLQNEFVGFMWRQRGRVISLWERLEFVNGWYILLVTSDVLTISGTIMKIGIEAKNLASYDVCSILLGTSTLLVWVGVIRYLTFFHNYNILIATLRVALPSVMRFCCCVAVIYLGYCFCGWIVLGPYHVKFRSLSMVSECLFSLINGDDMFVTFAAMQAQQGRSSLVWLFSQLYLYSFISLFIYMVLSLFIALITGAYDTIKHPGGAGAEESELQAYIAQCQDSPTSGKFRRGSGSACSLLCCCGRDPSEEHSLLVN
#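 Agonist activity was taken from a 110 s kinetic Ca2+ dye read on the FDSS after pinning compounds onto TRPML1-DL cells. The cells were seeded at 1,500/well with Tet inducer, incubated about 16 h, then dye-loaded at room temperature.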
# D2 ag: human D2 receptor agonism in beta-arrestin assay; hit rate 0.084% among 360,000; P14416; activation, % (concentration not given with the values); DiscoveRx PathHunter D2 beta-arrestin, luminescence, 90 min; 100% = 57 uM dopamine signal; AID 624465; in the data active = activation above about 40%; inconclusive = about 15% to 40%; inactive = below about 15%; also: compound concentration not given in the record; the text of the record calls up to 30% inactive
# Target sequence (P14416 whole entry, looked up): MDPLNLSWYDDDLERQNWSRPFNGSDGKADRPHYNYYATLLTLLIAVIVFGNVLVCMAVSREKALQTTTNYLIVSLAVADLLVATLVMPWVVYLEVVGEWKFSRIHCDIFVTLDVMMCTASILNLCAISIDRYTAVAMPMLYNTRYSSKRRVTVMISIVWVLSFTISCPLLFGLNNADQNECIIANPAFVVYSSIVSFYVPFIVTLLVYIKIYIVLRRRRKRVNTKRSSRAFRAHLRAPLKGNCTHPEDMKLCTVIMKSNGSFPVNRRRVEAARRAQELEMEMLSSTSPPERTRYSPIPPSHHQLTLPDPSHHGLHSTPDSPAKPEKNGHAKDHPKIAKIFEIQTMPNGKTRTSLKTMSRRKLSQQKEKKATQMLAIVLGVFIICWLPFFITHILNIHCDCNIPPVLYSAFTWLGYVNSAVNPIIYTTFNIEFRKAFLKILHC
#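 Agonist mode: compounds alone added to overnight-plated D2 PathHunter cells for 90 min at 37 C, with 57 uM final dopamine (EC100) defining full response. Beta-arrestin recruitment detected by chemiluminescent reagent, read after 1 h at ambient temperature.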
# TRPML1 inh: blocks the human TRPML1 channel. activity change, negative = inhibition, % (no concentration beside the values). Q9GZU1. AID 624415. hit rate 0.02% among 390,000. TRPML1-inducible cells, Ca2+ dye fluorescence, FDSS; active compounds read low; inhibition of EC80 agonist-evoked calcium signal; in the data active means activity change below about -50%; inconclusive means about -30% to -50%; inactive means above about -30%;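 also: stimulus is agonist 54-4 at its EC80 concentration; % is scaled to controls: 0 for no effect and ±100 for the full control effect; compound concentration not given in the record; the text of the record puts the active cut at -80%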
#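 Tet-induced TRPML1-DL cells loaded with Ca8 no-wash calcium dye were read kinetically on FDSS. Compound addition was followed by EC80 agonist 54-4 (4 uM final); inhibition was read over 110 s.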
# Six1-Eya2 blk: blocks human Six1 binding to Eya2 | activity change, % (no concentration beside the values) | AlphaScreen GST-Six1/His-Eya2 binding, biochemical; active compounds read low; control for the full effect not named in the record | Q15475+O00167 | hit rate 0.56% among 360,000; in the data active = activity change below about -65%; inconclusive = about -30% to -65%; inactive = above about -30%; also: % is scaled to controls: 0 for no effect and ±100 for the full control effect
#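 Homogeneous AlphaScreen proximity assay pairing GST-Six1 with His-tagged Eya2 (added as 5X mix: 250 nM and 500 nM) in 50 mM Tris pH 8.0, 300 mM NaCl, 1 mM TCEP. Glutathione donor and nickel acceptor beads; 1 h, 37 °C, dark.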
# PINK1 expr mod: modulators of PINK1 expression; PINK1 immunofluorescence, high-content cytometry, 24 h; Potency, µM (top dose mostly 76.6 µM), inactives show at the top dose activation (PINK1 increase), hits mostly activators; hit rate 0.2% among 410,000; AID 624263; active = well fitted activation curve with a large enough effect; inconclusive = small, poorly fitted or top-dose-only effect; inactive = flat fitted curve, though single readings scatter; cell line not stated here;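 also: potency is read from the fitted curve at half-maximal effect; % of control where 0% means no effect; nearly all actives have a fitted effect of over 65% in size; a mitochondrial uncoupler was the plate control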
#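 Measures PINK1 amount and localization on or inside mitochondria by immunofluorescence. Stable cells get compounds at 5 concentrations for 24 hours before fixation and staining; CCCP controls included.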
# D2 potentiator: human D2 receptor positive allosteric modulation. AID 624464. P14416. hit rate 0.23% among 360,000. DiscoveRx D2 beta-arrestin cells, luminescence, 90 min; 100% = 57 uM dopamine signal. potentiation, % (no concentration beside the values); active = potentiation of 50% or more; inconclusive = 30% to 50%; inactive = 30% or less;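 also: compound concentration not given in the record; tested on top of an EC20 dose of dopamine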
#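 PathHunter D2 cells, attached overnight at 37 deg C, received compound in DMSO plus dopamine at EC20 (50 nM final) for 90 min at 37 deg C. Beta-arrestin recruitment was read as luminescence after 1 h with detection reagent at ambient temperature.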
# Numbers without * were called inactive; ? = inconclusive; / = not tested or not shown; [ ] = remark or other dose.
SMILES,TRPML1 ag,D2 ag,TRPML1 inh,Six1-Eya2 blk,PINK1 expr mod,D2 potentiator
CCC(=O)OCC(=O)Nc1ccc2c(c1)OCO2,0.7,-2.8,3,4,-0.7%,2
CCc1ccc(N2CC(C(=O)OCC(=O)N(CC)c3c(N)n(Cc4ccccc4)c(=O)[nH]c3=O)CC2=O)cc1 (stereo unspecified),-0.5,-3.5,-10,0,1.8%,0
COc1ccc(/C=N/NC(=O)Nc2ccc3nsnc3c2)c(OC)c1,6.0,-3.1,-3,3,3.0%,-3
CN1CCN(c2nc3c(c(=O)n(C)c(=O)n3C)n2Cc2ccccc2)CC1,0.0,-3.3,-6,0,0.5%,-3
CCc1ccc(NC(=O)CSc2nc(=O)n(CCCN3CCOCC3)c3c2CCCC3)cc1,1.8,-2.9,2,0,-1.2%,-26
CC(C)/C(=N\NS(=O)(=O)c1ccc(Br)cc1)c1cccs1,0.7,-3.5,6,17,0.6%,-14
Nn1c(SCC(=O)NCCCc2ccccc2)nnc1-c1cccnc1,0.4,2.8,7,-2,7.3%,-2
Clc1ccc(-n2nnnc2-c2ccccc2)cc1Cl,2.4,-1.7,-1,11,?,-4
Cc1cc(C)c(NC(=S)N(CCCN2CCN(C)CC2)Cc2cccs2)c(C)c1,0.9,-2.3,13,-10,-0.4%,-13
CCCCCCN1CCN(C2CN(Cc3cn(Cc4cccc(C(F)(F)F)c4)nn3)S(=O)(=O)C2)CC1 (stereo unspecified),-0.7,/,/,-9,-0.6%,/
C/C(=N\OCC(=O)NC(C)C)c1cccs1,1.1,-0.1,-24,24,1.8%,-4
CC(=O)Nc1cc(-c2ccc(N3CCN(C)CC3)cc2)cn2c(-c3ccc(S(C)(=O)=O)cc3)cnc12,0.3,6.6,/,-10,1.0%,-8
COc1cccc(OCCNC(=O)c2ccccc2Sc2ccccc2C#N)c1,2.3,-0.4,12,4,-0.6%,-18
O=C1C(c2ccc(F)cc2)N(Cc2ccc3c(c2)OCO3)C(=O)CN1C1CCCCCC1 (stereo unspecified),2.1,-3.8,-9,0,30%[38.3 µM],-17
O=C(NC1CCSc2ccccc21)c1cccc(Cl)c1 (stereo unspecified),1.9,0.4,-11,3,0.7%,-8
CN(C)c1cccc(NC(=O)c2cccc3c(-c4ccc(F)c(F)c4)coc23)c1,-0.1,6.0,/,?,2.8%,-2
CC(C)Sc1nc2c(cnn2-c2ccc(Cl)cc2)c(=O)[nH]1,0.8,3.7,2,0,3.8%,-2
CC1(C)CC2CC(C)(CN2S(=O)(=O)c2cccc(C(=O)O)c2)C1 (stereo unspecified),-0.7,1.8,-6,7,0.2%,-2
COc1ccc(NC(=O)CSc2nc3nc(C)cc(C)c3c(=O)[nH]2)cc1,1.0,-3.6,5,10,2.5%,-7
OCCNc1nc2ccccc2nc1NCCO,1.5,-0.3,-7,2,-0.8%,1
CCOC(=O)c1c(NC(=O)c2ccn(CC)n2)sc2c1CCC2,1.3,-1.2,-1,16,13%,2
CC(C)(C)NC(=O)C1N(c2cccnc2)C(=O)C2C(C(=O)Nc3ccccc3F)C3(C)C=CC21O3 (stereo unspecified),0.1,-0.3,3,-1,0.8%,-5
COc1ccccc1CNS(=O)(=O)c1ccc(-n2cnnn2)c(C)c1,-0.9,-0.8,7,-20,1.8%,-6
O=C1c2ccccc2C(=O)c2c1cccc2N1CCN(C/C=C/c2ccccc2)CC1,0.6,-4.8,4,-13,-1.4%,-2
CC1=C(C(=O)N(C)C)CC(CC(=O)NCc2cccc3ccccc23)C(=O)N1Cc1ccc(F)cc1 (stereo unspecified),0.8,-3.6,-1,-1,-0.4%,-6

# Among those listed so far, these have a Cl atom:
SMILES,TRPML1 ag,D2 ag,TRPML1 inh,Six1-Eya2 blk,PINK1 expr mod,D2 potentiator
Clc1ccc(-n2nnnc2-c2ccccc2)cc1Cl,2.4,-1.7,-1,11,?,-4
O=C(NC1CCSc2ccccc21)c1cccc(Cl)c1 (stereo unspecified),1.9,0.4,-11,3,0.7%,-8
CC(C)Sc1nc2c(cnn2-c2ccc(Cl)cc2)c(=O)[nH]1,0.8,3.7,2,0,3.8%,-2

# Further results follow:
SMILES,TRPML1 ag,D2 ag,TRPML1 inh,Six1-Eya2 blk,PINK1 expr mod,D2 potentiator
O=C1C2CC=CCC2C(=O)N1c1ccc(NCCc2cccc(F)c2)c([N+](=O)[O-])c1 (stereo unspecified),-0.3,-2.8,-3,-14,-0.5%,11
O=C(COc1ccc([N+](=O)[O-])cc1Cl)NCCN1C(=O)CSC1=O,-0.9,-2.8,25,4,0.3%,-3
O=C(NCc1ccccc1)c1ccc(Br)cc1,1.3,-2.5,-6,0,-0.6%,-6
O=[N+]([O-])c1ccc(NCCN2CCOCC2)c([N+](=O)[O-])c1,0.9,-1.9,50,-1,-0.3%,0
Cc1cc(Cl)c(OCCCN(C)C)c(Br)c1,0.3,-4.6,-26,0,0.4%,-28
O=S(=O)(NCc1ccccn1)c1cc(OCC(F)(F)F)ccc1OCC(F)(F)F,0.9,-4.9,-7,-9,0.7%,-18
COc1ccc(Cc2nnc(NC(=O)c3cccc(F)c3)s2)cc1OC,1.8,1.7,12,1,-2.8%,-1
Cc1ccc(F)cc1NC(=O)CSc1n[nH]c(N)n1,1.9,-6.3,5,-1,-0.7%,-5
O=C(N/N=C/C=C\c1ccco1)c1cccs1,0.5,3.0,25,-20,-3.2%,-2
CSc1cccc(CNC(=O)C2CCC(=O)N(CC3CCCCC3)C2)c1 (stereo unspecified),-0.2,-1.0,-4,5,3.5%,0
CCNC(=S)Nc1ccc2ncoc2c1,0.2,-1.8,2,2,-0.6%,3
COc1ccccc1CNC(=O)C(=O)c1cn(CC(=O)N2CCOCC2)c2ccccc12,-0.1,-1.3,-15,7,0.6%,-1
CCC(C)NCCCOc1cc(Cl)ccc1Cl (stereo unspecified),0.0,-2.7,-12,2,-0.3%,-38
Cn1c(NCc2c(O)ccc3ccccc23)nc2ccccc21,4.3,-0.7,2,-10,?,-3
COc1ccc(C)cc1S(=O)(=O)n1ccnc1C,-0.2,-3.1,32,8,2.8%,-9
COc1ccc(C)cc1NC(=O)C1CCN(C(=O)Cc2ccccc2)CC1,1.6,-0.5,20,5,0.8%,1
COc1cc(N2CCCC2)c(OC)cc1/C=C1/NC(=S)NC1=O,?,-2.0,-20,-15,?,-12
Cc1ccc(C(=O)OCC(=O)Nc2ccc(N3CCOCC3)cc2)cc1,0.6,-2.6,32,-8,?,-5
COc1ccccc1-n1c(CNC(=O)c2cccc([N+](=O)[O-])c2C)n[nH]c1=S,-0.9,1.5,-8,8,3.1%,-6
O=C(Cc1c(F)cccc1Cl)c1ccc(O)cc1O,0.6,-2.7,12,0,11%[38.3 µM],-17
CC(=O)c1cccc(NC(=O)c2c(-c3c(F)cccc3Cl)noc2C)c1,0.7,0.3,2,2,-1.8%,-2
CCN(C(=O)/C=C/c1ccccc1)C1CCCCC1,1.0,0.4,11,0,-0.1%,-3
CCN1C(=O)[C@H]2[C@@H](c3ccc(-c4ccc(Cl)c(Cl)c4)c(OC)c3)N3CCCC[C@@]3(C(=O)OC)[C@H]2C1=O,-0.4,-1.3,31,-5,7.5%,0
COc1cccc(CNc2cccc3cccnc23)c1O,0.5,-1.0,-15,-14,-0.9%[38.3 µM],17
Cc1ccc2nsnc2c1S(=O)(=O)N1CCOCC1,-0.3,-1.9,-13,-1,5.5%[38.3 µM],-8

# An excerpt from above, showing only TRPML1 inh.
Molecule	TRPML1 inh
O=C(NC1CCSc2ccccc21)c1cccc(Cl)c1 (stereo unspecified)	-11
O=C(NCc1ccccc1)c1ccc(Br)cc1	-6

# (cont.)
SMILES,TRPML1 ag,D2 ag,TRPML1 inh,Six1-Eya2 blk,PINK1 expr mod,D2 potentiator
N/C(=N\OC(=O)Cc1ccc(Cl)cc1)c1ccncc1,-1.4,-4.4,-2,1,-0.6%,23
CCCn1c(C(O)c2ccc(OC)c(OC)c2)nc2ccccc21 (stereo unspecified),0.2,-3.6,7,-5,3.8%,-1
Cc1cc(NS(=O)(=O)c2ccc(NC(=O)/C=C/c3ccc(Br)cc3)cc2)no1,0.6,-0.8,-7,-6,2.7%,10
CN1c2ccccc2C(=O)NC1c1ccc([N+](=O)[O-])s1 (stereo unspecified),0.2,-0.9,4,-6,-0.1%,1
CC(=O)c1cccc(NC(=O)CSc2nnc3ccc(-c4ccc(C)cc4)nn23)c1,1.9,/,37,/,-2.2%,/
O=C1CCCN1c1ccc(CNS(=O)(=O)c2ccc(F)cc2)cc1,-0.3,0.1,-4,11,-0.8%,-5
COc1ccc2cc(C(=O)C3CCCN(Cc4ccccn4)C3)ccc2c1 (stereo unspecified),-0.7,-0.5,-1,-12,-1.2%,-6
CCOc1cccc(/C=N/N2CCN(c3ccc(Cl)cc3)CC2)c1O,/,-4.7,/,-13,-0.2%,-3
O=C(COc1ccc(C(=S)N2CCC(Cc3ccccc3)CC2)cc1)N1CCOCC1,0.6,-0.5,15,-10,1.7%,-10
CCCOc1ccccc1C1NC(=O)NC(C)=C1C(=O)OCCOCC (stereo unspecified),-1.3,-8.0,10,9,-0.2%,2
COc1cc([N+](=O)[O-])cc2cc(C(=O)N3CCCC3)c(=O)oc12,0.6,1.7,9,5,0.9%,-5
COc1cc(CNc2nnnn2C)ccc1OCc1ccc(F)cc1Cl,2.6,-4.4,-3,1,4.8%,-6
Cc1cc(C(=S)N2CCOCC2)c(C)n1-c1ccc(Cl)cc1,1.6,-0.9,5,-16,-0.3%,-18
CCOC(=O)c1c(N)sc2c(OCC)c(Br)ccc12,-0.1,-1.2,6,-8,-5.5%[38.3 µM],-1
O=C(O)CC(NC(=O)C(c1ccccc1)c1ccccc1)c1ccco1 (stereo unspecified),-0.3,-4.2,46,0,3.0%,3

# Reprinted from above (4 entries):
SMILES,TRPML1 ag,D2 ag,TRPML1 inh,Six1-Eya2 blk,PINK1 expr mod,D2 potentiator
N/C(=N\OC(=O)Cc1ccc(Cl)cc1)c1ccncc1,-1.4,-4.4,-2,1,-0.6%,23
CCCn1c(C(O)c2ccc(OC)c(OC)c2)nc2ccccc21 (stereo unspecified),0.2,-3.6,7,-5,3.8%,-1
Cc1cc(NS(=O)(=O)c2ccc(NC(=O)/C=C/c3ccc(Br)cc3)cc2)no1,0.6,-0.8,-7,-6,2.7%,10
CN1c2ccccc2C(=O)NC1c1ccc([N+](=O)[O-])s1 (stereo unspecified),0.2,-0.9,4,-6,-0.1%,1

# High-throughput results deposited in PubChem by National Center for Advancing Translational Sciences (NCATS).
